Six1-Eya2 blk = inhibitors of human Six1/Eya2 interaction. AlphaScreen GST-Six1/His-Eya2 binding, biochemical; hits give low values; control for the full effect not named in the record. activity change, % (concentration not given with the values). 360,000 compounds, 0.56% hits. AID 651725; in the data active = activity change below about -65%; inconclusive = about -30% to -65%; inactive = above about -30%; note: % is set by controls: 0 for no effect and ±100 for the full control effect
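AlphaScreen with GST-Six1 and His-Eya2 (5X mix: 250 nM and 500 nM), glutathione donor and nickel acceptor beads; buffer 50 mM Tris pH 8.0, 300 mM NaCl, 1 mM TCEP; 1 h at 37 C in the dark.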
TRPML1 agonist = activates the human TRPML1 channel. Q9GZU1. TRPML1-expressing cells, Ca2+ dye fluorescence, FDSS; host cell line not named in the record; reference of the full effect not given here. activation, % (test concentration not listed). 410,000 compounds, 0.12% hits. AID 624414; in the data active = activation above about 50%; inconclusive = about 30% to 50%; inactive = below about 30%; note: 0% is about no effect; the text of the record puts the active cut at 80%
Target sequence (Q9GZU1 whole entry, looked up): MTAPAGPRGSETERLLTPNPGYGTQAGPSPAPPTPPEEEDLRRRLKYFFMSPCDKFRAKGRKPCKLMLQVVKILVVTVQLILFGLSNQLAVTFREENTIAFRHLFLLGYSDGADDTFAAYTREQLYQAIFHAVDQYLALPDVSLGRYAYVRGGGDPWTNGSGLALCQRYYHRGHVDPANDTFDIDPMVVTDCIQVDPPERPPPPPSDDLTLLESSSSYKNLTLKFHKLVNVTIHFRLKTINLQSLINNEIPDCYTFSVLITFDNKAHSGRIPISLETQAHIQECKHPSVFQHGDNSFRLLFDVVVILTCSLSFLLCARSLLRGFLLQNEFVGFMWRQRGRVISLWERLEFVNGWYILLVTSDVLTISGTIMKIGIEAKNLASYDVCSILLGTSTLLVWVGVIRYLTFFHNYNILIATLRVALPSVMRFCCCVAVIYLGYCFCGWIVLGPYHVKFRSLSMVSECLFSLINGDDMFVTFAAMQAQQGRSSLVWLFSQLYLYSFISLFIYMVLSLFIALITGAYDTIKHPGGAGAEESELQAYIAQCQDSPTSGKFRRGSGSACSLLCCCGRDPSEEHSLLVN
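In this qHTS format, compounds were pin-transferred onto Ca8-dye-loaded TRPML1-DL cells induced with Tet overnight, and intracellular Ca2+ fluorescence was recorded kinetically for 110 s after a 10 s baseline. A subsequent 4uM final 54-4 (EC80) addition followed by a second 110 s read served as the antagonist phase.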
D2 agonist = agonists of human D2 dopamine receptor (beta-arrestin); DiscoveRx PathHunter D2 beta-arrestin, luminescence, 90 min; 100% = 57 uM dopamine signal; activation, % (test concentration not listed); 360,000 compounds, 0.084% hits; in the data active = activation above about 40%; inconclusive = about 15% to 40%; inactive = below about 15%; note: compound concentration not given in the record; the text of the record calls up to 30% inactive
Target sequence (P14416 whole entry, looked up): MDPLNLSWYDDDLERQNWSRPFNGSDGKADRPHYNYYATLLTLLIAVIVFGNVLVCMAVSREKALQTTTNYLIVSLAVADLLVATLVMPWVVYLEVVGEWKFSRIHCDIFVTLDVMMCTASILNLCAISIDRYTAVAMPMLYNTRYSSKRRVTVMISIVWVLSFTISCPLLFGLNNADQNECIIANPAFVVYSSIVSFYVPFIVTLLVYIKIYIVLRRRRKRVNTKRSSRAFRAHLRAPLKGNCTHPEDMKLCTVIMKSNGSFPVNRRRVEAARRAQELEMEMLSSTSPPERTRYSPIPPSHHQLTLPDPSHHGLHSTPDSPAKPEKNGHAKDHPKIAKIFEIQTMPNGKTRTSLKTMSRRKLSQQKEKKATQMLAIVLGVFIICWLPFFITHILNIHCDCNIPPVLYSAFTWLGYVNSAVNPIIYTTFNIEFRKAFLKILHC
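Agonist mode: compounds alone added to overnight-plated D2 PathHunter cells for 90 min at 37 C, with 57 uM final dopamine (EC100) defining full response. Beta-arrestin recruitment detected by chemiluminescent reagent, read after 1 h at ambient temperature.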
CtBP-E1A blk = CtBP/E1A binding inhibition. AlphaScreen GST-E1A/His-CtBP binding, 1536-well; hits give low values; control for the full effect not named in the record. activity change, % (no concentration beside the values). 340,000 compounds, 0.49% hits. AID 651724; in the data active means activity change below about -65%; inconclusive means about -30% to -65%; inactive means above about -30%; note: % is set by controls: 0 for no effect and ±100 for the full control effect
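GST-E1A and His-tagged CtBP (125 nM each as 5X stock) were preincubated with pin-transferred compound for 2 h at 37 °C in the dark, then glutathione donor and nickel acceptor beads were added for 1 h before AlphaScreen reading.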
PINK1 modulator = changes PINK1 expression | 410,000 compounds, 0.2% hits | PINK1 immunofluorescence, high-content cytometry, 24 h | AID 624263 | Potency, µM (titrated, usually from 76.6 µM), for inactives: at the highest dose activation (PINK1 increase), hits mostly activators; active = well fitted activation curve with a large enough effect; inconclusive = small, poorly fitted or top-dose-only effect; inactive = flat fitted curve, though single readings scatter; cell line not stated here;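 note: potency is the fitted concentration of half-maximal effect; % of control where 0% means no effect; nearly all actives have a fitted effect of over 65% in size; a mitochondrial uncoupler was the plate control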
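Stable cell line treated 24 h with compounds at 5 concentrations (CCCP controls), then fixed and immunostained for PINK1 plus nuclear and cell stains; PINK1 immunofluorescence quantified by laser-scanning microplate cytometry.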
D2 potentiator = positive allosteric modulators of human D2 dopamine receptor | DiscoveRx D2 beta-arrestin cells, luminescence, 90 min; 100% = 57 uM dopamine signal | P14416 | potentiation, % (no concentration beside the values) | 360,000 compounds, 0.23% hits | AID 624464; active = potentiation of 50% or more; inconclusive = 30% to 50%; inactive = 30% or less;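 note: compound concentration not given in the record; tested on top of an EC20 dose of dopamine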
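PathHunter D2 cells, attached overnight at 37 deg C, received compound in DMSO plus dopamine at EC20 (50 nM final) for 90 min at 37 deg C. Beta-arrestin recruitment was read as luminescence after 1 h with detection reagent at ambient temperature.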
* = called active by the depositor; ? = inconclusive; . = no result given; & = joins results of further samples; [ ] = remark or other dose.

entry	Compound	Six1-Eya2 blk	PINK1 modulator	D2 agonist	TRPML1 agonist	CtBP-E1A blk	D2 potentiator
1	Cc1ccc(C)c(NC(=S)NC(NC(=O)Cc2ccccc2)C(Cl)(Cl)Cl)c1 (stereo unspecified)	-3	11%	-4.6	-0.5	-5	-6
2	COc1ccc(C)cc1NC(=O)c1cc(S(=O)(=O)N2CCCCC2)ccc1N1CCOCC1	0	1.0%	-3.3	1.0	.	-6
3	COc1cc(C(=O)NCCC(=O)NCCN2CCOCC2)cc(OC)c1OC	-1	1.8%[38.3 µM]	-1.1	0.0	-3	-1
4	CCSc1nnc(NC(=O)C(Cc2ccccc2)n2cccc2)s1 (stereo unspecified)	-4	11%	-3.9	0.0	0	-1
5	Cc1ccc(-c2nnn(CC(=O)N(Cc3ccccc3)C(C(=O)NC3CCCC3)c3ccncc3)n2)o1 (stereo unspecified)	-2	-2.6%[38.3 µM]	-3.1	2.0	-1	-8
6	Cc1ccc2c(CC(=O)NNC(=O)c3ccncc3)coc2c1	5	-0.1%	-0.9	0.0	-4	-2
7	O=C(C1CCN(S(=O)(=O)c2cnc[nH]2)CC1)N(CCc1ccccc1)Cc1ccccc1	4	1.5%	-0.4	0.3	.	-8
8	O=C(NCc1ccccc1Cl)c1ccc(NC2=NC3CS(=O)(=O)CC3S2)cc1 (stereo unspecified)	8	-0.2%	-6.7	0.8	-12	-6
9	CC1CCCC(NS(=O)(=O)c2cc3c(cc2Cl)NC(=O)CO3)C1C (stereo unspecified)	1	2.7%	2.8	0.7	2	2
10	Cc1ccc(CNS(=O)(=O)c2c(C(=O)N3CCCCC3)c(C)n(C)c2C)o1	0	1.0%	-4.2	-0.8	2	-3
11	CCn1ncc(NC(=S)NCCc2ccccc2)c1C(N)=O	1	2.5%	3.0	0.4	17	1
12	CC(=O)NCCNC(=O)C1(C)Cc2c(-c3cccc(C(F)(F)F)c3)ccnc2O1 (stereo unspecified)	4	1.1%	-2.2	-0.5	6	1
13	CCSc1n[nH]c(=O)[nH]c1=O	18	-0.8%	-3.7	-0.1	0	-22
14	COc1ccc(SCCN2CCN(CC(C)C)CCC2=O)cc1	0	3.3%	0.0	0.9&0.1	0	-9
15	CCC(=O)Nc1ccc(NC(=S)NC(=O)c2cc3ccccc3o2)cc1	-8	13%	-2.9	-0.2	2	-8
16	CC(=O)NC(CCCCNC(=S)NC1CCCCC1)C(=O)O (stereo unspecified)	-4	0.3%	-1.5	0.1	-6	-5
17	COc1ccc(NC(=O)c2ccc(S(=O)(=O)N3CC(C)OC(C)C3)cc2)cc1 (stereo unspecified)	0	1.1%	3.7	-0.6	7	-1
18	CN1C(CC(=O)c2ccccc2)CCCC1CC(O)c1ccccc1 (stereo unspecified)	22	-1.2%&-0.6%	-7.0	0.6	-9	-83
19	CCCCS(=O)(=O)N1CCCC(C(=O)NCC2CCCO2)C1 (stereo unspecified)	-11	0.0%	1.4	0.9	0	-8
20	Cc1cc(NC(=O)CCC(=O)N(CC(=O)NC2CCCC2)c2ccc(F)c(Cl)c2)no1	9	2.6%	1.5	-0.3	-4	-2
21	CC(C)c1ccc(NC2CCCN(C(=O)c3ccc(N4CCOCC4)cc3)C2)cc1 (stereo unspecified)	-8	2.1%	2.7	-0.5	-5	10
22	Cc1noc(C)c1COC(=O)CCc1nc2ccccc2c(=O)[nH]1	0	1.0%	-0.8	-0.1	8	-14
23	N#C/C(=C\c1ccccn1)c1nc2ccccc2s1	-7	?	14	27	-4	6
24	C=CCn1c(=NC(=O)c2cc(Cl)sc2Cl)sc2cc(S(N)(=O)=O)ccc21	-5	3.8%	-6.2	0.3	-2	-25
25	COc1cc(/C=N/NC(=O)c2cccc([N+](=O)[O-])c2)cc(OC)c1O	-2	1.6%	-0.6	1.7	.	5
26	O=C(COc1coc(CN2CCCc3ccccc32)cc1=O)Nc1ccccc1	-9	8.9%	6.4	1.2	2	-1
27	CC(=O)Nc1ccc(N2C(=O)c3cccc(NC(C)=O)c3C2=O)cc1	-2	-0.7%	-1.0	-0.6	2	-7
28	COc1ccc2c(c1)[nH]c1c(=O)n(CCN3CCCC3)cnc12	0	-0.4%	-2.7	-0.2	-8	-13
29	Cc1oc(-c2ccc(Cl)cc2)nc1CN1CCCC(C(=O)N2CCN(C(=O)c3ccco3)CC2)C1 (stereo unspecified)	7	1.1%	0.0	1.3	-18	-4
30	Cc1nc(-c2ccc(NC(=O)c3cccs3)cc2)cs1	-1	9.6%	-3.6	0.1	3	-27

Random excerpt: 6 records from the list
entry	Compound	Six1-Eya2 blk	PINK1 modulator	D2 agonist	TRPML1 agonist	CtBP-E1A blk	D2 potentiator
2	COc1ccc(C)cc1NC(=O)c1cc(S(=O)(=O)N2CCCCC2)ccc1N1CCOCC1	0	1.0%	-3.3	1.0	.	-6
22	Cc1noc(C)c1COC(=O)CCc1nc2ccccc2c(=O)[nH]1	0	1.0%	-0.8	-0.1	8	-14
17	COc1ccc(NC(=O)c2ccc(S(=O)(=O)N3CC(C)OC(C)C3)cc2)cc1 (stereo unspecified)	0	1.1%	3.7	-0.6	7	-1
20	Cc1cc(NC(=O)CCC(=O)N(CC(=O)NC2CCCC2)c2ccc(F)c(Cl)c2)no1	9	2.6%	1.5	-0.3	-4	-2
13	CCSc1n[nH]c(=O)[nH]c1=O	18	-0.8%	-3.7	-0.1	0	-22
7	O=C(C1CCN(S(=O)(=O)c2cnc[nH]2)CC1)N(CCc1ccccc1)Cc1ccccc1	4	1.5%	-0.4	0.3	.	-8

Remaining list, next part.
entry	Compound	Six1-Eya2 blk	PINK1 modulator	D2 agonist	TRPML1 agonist	CtBP-E1A blk	D2 potentiator
31	O=C(C1CCCN(S(=O)(=O)c2cccc3cccnc23)C1)N1CCc2ccccc21 (stereo unspecified)	-12	6.9%	-2.0	1.1	-2	-3
32	CN=C(C[N+](=O)[O-])NCCSCc1ccc(CN(C)C)o1	0	-0.9%	-2.3	0.0	11	-33
33	CC(/C=C/c1ccc(N(C)C)cc1)=N/N=C1/NC(=O)CC(C(=O)Nc2ccc(Cl)cc2)S1 (stereo unspecified)	?	-0.8%	-0.3	4.8	?	-2
34	Cc1ccc(C)c(S(=O)(=O)NCc2ccc(C(=O)N3CCN(C)CC3)cc2)c1	4	-0.7%[38.3 µM]	2.3	0.3	3	2
35	Cc1ccc(N2CC(C(=O)N3CCN(c4ccccn4)CC3)CC2=O)cc1 (stereo unspecified)	-10	0.7%	-1.6	-0.1	4	-7
36	COc1ccc(S(=O)(=O)Nc2ccc3c(c2)OCCO3)cc1OC	6	-0.2%	11	-0.8	5	2
37	Cc1cccc(NC(=O)C23CCC(C)(C(=O)O2)C3(C)C)c1 (stereo unspecified)	1	-1.4%	-4.6	6.9	1	-4
38	COc1cc([N+](=O)[O-])ccc1NC(=O)CCCOc1cccc(C)c1	-14	-0.7%	0.4	1.3	-2	-1
39	N#Cc1c(-c2cccs2)nc(SCc2ccc(Cl)cc2)[nH]c1=O	2	1.8%	-2.5	-0.9	-1	-11
40	CC(C)CC(=O)N1CCC(O)(CS(=O)(=O)c2ccc(Cl)c(Cl)c2)CC1	14	0.6%	-3.6	-1.4	19	-6
41	Cc1ccc(NS(=O)(=O)c2cccc3cccnc23)c(Br)c1	-2	1.7%	-0.2	2.6	-5	0
42	CCc1ccccc1NC(=S)N(Cc1ccc(C(=O)O)cc1)Cc1ccc(OC)c(OC)c1	5	0.3%	-0.4	0.3	0	-4
43	COc1ccc(NC(=O)C(=O)NCC2CCCN2S(=O)(=O)c2cc(C)ccc2C)cc1 (stereo unspecified)	-2	1.9%	-1.3	1.6	2	-4
44	CCOC(=O)C1(CCOC)CCN(Cc2cccc(OCc3ccccc3)c2)CC1	-6	4.3%	0.6	1.6	12	-4
45	O=C(CSc1nnc(COc2ccc(Cl)cc2)n1Cc1ccco1)c1ccccc1F	1	4.4%	0.8	2.0	9	-6
46	Cc1nc(Cl)c(C(=O)Nc2cccc(F)c2)c(C)c1Cl	3	3.6%	0.1	-0.6	-23	-3
47	O=C(CCC1CCCC1)NC1CCCCC1	30	-0.4%	-3.5	-0.1	1	-22
48	CN(C)CC(=O)Nc1cc(C(F)(F)F)ccc1Cl	0	-1.2%	-2.4	2.0	0	-31
49	CCN(CC(=O)Nc1ccc(NC(C)=O)cc1)C(=O)c1cc(-c2ccccc2)nn1-c1ccccc1	-4	-1.2%	-3.2	0.6	-2	-12
50	O=C(CCS(=O)(=O)Cc1ccccc1)Nc1ccc2c(c1)OCCO2	11	-0.2%	-2.1	0.0	6	1
51	CCc1ccccc1NC(=O)CC(NCc1ccccc1)C(=O)O (stereo unspecified)	4	0.6%	1.6	0.4	.	0
52	COc1ccc(/C=C/C(=O)Nc2nc(C)cc(C)n2)cc1OC	-3	-2.0%	-2.3	2.8	0	-2
53	NS(=O)(=O)c1ccc(CCNC(=O)c2ccc3c(=O)n4c(nc3c2)CCCCC4)cc1	5	-1.6%	8.5	-0.5	-1	-4
54	c1ccc(Cn2nnnc2C(c2cccnc2)N2CCN(c3ccccc3)CC2)cc1 (stereo unspecified)	-5	0.6%[38.3 µM]	1.4	0.3	11	-2
55	O=C(O)C(=Cc1cccc([N+](=O)[O-])c1)c1ccccc1	3	0.6%	1.1	0.7	-1	-4
56	Cc1cccc(C(=O)Nc2nnc(SCC(=O)Nc3ccc4c(c3)oc3ccccc34)s2)c1	3	5.7%	-1.8	2.9	2	-21
57	COc1ccc(OC)c(-c2csc(NC(=O)C3=NN(c4ccccc4)C(=O)CC3)n2)c1	-1	1.1%	-0.9	1.0	-14	-14
58	CCOc1ccc(NC(=O)N2CCC(n3nnc4ccccc43)CC2)cc1	-11	1.6%	-0.9	-0.7	-2	-6
59	Cc1c(OCC(=O)NCCCN2CCCC2=O)ccc2c3c(c(=O)oc12)CCCC3	4	0.2%	1.8	-0.8	-6	-7
60	CC1(C)OC(C(=O)NC2CCCCC2)C(C(=O)NC2CCCCC2)O1 (stereo unspecified)	6	0.7%[38.3 µM]	-0.8	-0.6	10	-8
61	COc1cc2c(cc1OC)-c1cc(Nc3ccc(C)cc3)nc(=O)n1CC2	?	0.1%	5.3	1.6	.	-5
62	O=C(NC1CC1)c1ccc2nc([C@@H]3O[C@H](CO)[C@H](O)[C@H](O)[C@H]3O)[nH]c2c1	2	1.9%	-4.9	-0.6	-20	-4
63	CS(=O)(=O)c1ccc(NS(=O)(=O)c2ccc(Cl)c(C(=O)NCc3ccco3)c2)cc1	1	1.8%	-1.8	-1.0	.	-7

Whole records from above:
`O=C(CCS(=O)(=O)Cc1ccccc1)Nc1ccc2c(c1)OCCO2` in the list: Six1-Eya2 blk: 11; PINK1 modulator: -0.2%; D2 agonist: -2.1; TRPML1 agonist: 0.0; CtBP-E1A blk: 6; D2 potentiator: 1
`Cc1ccc(NS(=O)(=O)c2cccc3cccnc23)c(Br)c1` in the list: Six1-Eya2 blk: -2; PINK1 modulator: 1.7%; D2 agonist: -0.2; TRPML1 agonist: 2.6; CtBP-E1A blk: -5; D2 potentiator: 0

Screening results (PubChem BioAssay)
